Bioassay records: PubChem BioAssay, National Center for Advancing Translational Sciences (NCATS)
NS1 function inh: inhibitors of influenza NS1 protein function; S. cerevisiae slowed by influenza A NS1, growth recovery by OD600; Potency, µM (titrated, usually from 46.1 µM), for inactives: top-dose activity, positive = more growth; 270,000 compounds, 0.4% hits; AID 2326; note: actives are rising curves; nearly all actives have a fitted effect of over 50% in size
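Recovery from NS1-induced slow growth read by OD600 in budding yeast switched to galactose assay medium (pH 6.0, -URA) at 1:100 dilution. Compound 23 nl per well; the matching strain lacking NS1 serves as control.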
RE007 growth inh: less growth of the S. pombe RE007 Vpr strain; S. pombe RE007 Vpr strain, BacTiter-Glo ATP luminescence, 24 h; control for the full effect not named in the record; Potency, µM (titrated, usually from 92.2 µM), without a hit: at the highest dose activity change, negative = less growth; 360,000 compounds, 0.21% hits; AID 651644; active = well fitted falling curve with a large enough effect; inconclusive = small, poorly fitted or top-dose-only effect; inactive = no such curve, though single readings can be large or run the other way;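 note: % is set by controls: 0 for no effect and ±100 for the full control effect; nearly all actives have a fitted effect of over 50% in size; the assay follows cell death caused by Vpr and the record does not say whether a fall means rescue or toxicity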
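Fission yeast strain RE007, carrying one chromosomally integrated HIV-1 vpr copy, was seeded at OD 0.01 in PMG+AL medium with 23 nL pinned compound. After 24 h at 30 °C and 99% humidity, viability was read by BacTiter-Glo luminescence.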
Lassa entry inh: blocks Lassa virus binding to or entry into cells. Lassa virus pseudotype entry inhibition, cell reporter; control for the full effect not named in the record. AID 540256. 300,000 compounds, 1.2% hits. Potency, µM (series often up to 37.9 µM), inactives show top-dose activity change, negative = inhibition, most hits filed as inhibitors; active means well fitted inhibition curve with a large enough effect; inconclusive means small, poorly fitted or top-dose-only effect, or effect the other way; inactive means flat fitted curve, though single readings scatter; tested in HEK293 cells; note: % is set by controls: 0 for no effect and ±100 for the full control effect; nearly all actives have a fitted effect of over 50% in size; luciferase read-out
Cruzain inh Det: inhibitors of Trypanosoma cruzi cruzain with detergent; P25779; purified cruzain, Z-FR-AMC fluorescence, 0.01% Triton; Potency, µM, inactives show max response, negative = inhibition, most hits filed as inhibitors; 200,000 compounds, 0.43% hits; AID 1478; active = well fitted curve in the direction sought with a large enough effect; inconclusive = small, poorly fitted or top-dose-only effect, or another doubt; inactive = no such curve, though single readings can be large; an effect the other way counts as inactive or inconclusive;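 note: plate controls were neutral wells for no effect and buffer without enzyme for full effect; nearly all actives have a fitted effect of over 40% in size; top concentration of the series not given in the record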
Target sequence (P25779 123-467 limits assumed): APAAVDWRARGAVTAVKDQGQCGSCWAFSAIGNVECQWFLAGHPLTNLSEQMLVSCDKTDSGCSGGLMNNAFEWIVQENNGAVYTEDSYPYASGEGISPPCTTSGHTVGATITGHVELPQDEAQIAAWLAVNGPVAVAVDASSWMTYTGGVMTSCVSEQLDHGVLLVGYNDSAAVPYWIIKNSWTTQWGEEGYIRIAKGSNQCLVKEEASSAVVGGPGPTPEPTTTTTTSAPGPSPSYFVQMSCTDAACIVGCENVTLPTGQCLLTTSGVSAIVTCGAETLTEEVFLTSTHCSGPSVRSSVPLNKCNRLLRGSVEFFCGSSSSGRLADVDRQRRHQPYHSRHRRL
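Purified cruzain (1.5 nM final) was preincubated with compounds for 15 min at room temperature in 100 mM sodium acetate pH 5.5, 5 mM DTT, 0.01% Triton X-100. Reaction started with 2 uM Z-FR-AMC; AMC fluorescence change over 60 s gave activity.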
Cruzain inh noDet: inhibitors of Trypanosoma cruzi cruzain without detergent | Potency, µM, inactives show max response, negative = inhibition, actives largely listed as inhibitors | 200,000 compounds, 2.3% hits | P25779 | AID 1476 | purified cruzain, Z-FR-AMC fluorescence, no detergent; active = well fitted curve in the direction sought with a large enough effect; inconclusive = small, poorly fitted or top-dose-only effect, or another doubt; inactive = no such curve, though single readings can be large; an effect the other way counts as inactive or inconclusive;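 note: plate controls were enzyme without inhibitor for no effect and buffer without enzyme for full effect; nearly all actives have a fitted effect of over 40% in size; top concentration of the series not given in the record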
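Purified cruzain at 1.5 nM, pre-incubated 15 min with compound at room temperature in 100 mM sodium acetate pH 5.5, 5 mM DTT, 0.00005% Triton X-100. Reaction started with 2 uM Z-FR-AMC; AMC fluorescence increase over 60 s gives rate.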
SARS PLP yeast: blocks SARS-CoV papain-like protease in a yeast assay. AID 485353. S. cerevisiae expressing SARS-CoV PLpro, growth rescue; control for the full effect not named in the record. 330,000 compounds, 0.19% hits. Potency, µM (doses to about 32.9 µM), inactives show top-dose activity, positive = growth rescue; note: 0% is about no effect; nearly all actives have a fitted effect of over 55% in size; growth read by luminescence after 48 h
MARV entry inh: Marburg virus entry inhibition; Marburg virus pseudotyped entry inhibition, cell reporter; control for the full effect not named in the record; about a third of the inactives were read at about 46 µM; Potency, µM (top dose mostly 37.8 µM), inactives show at the highest dose activity change, negative = inhibition, most hits filed as inhibitors; 300,000 compounds, 1.8% hits; AID 540276; active = well fitted inhibition curve with a large enough effect; inconclusive = small, poorly fitted or top-dose-only effect, or effect the other way; inactive = flat fitted curve, though single readings scatter; tested in HEK293 cells; about a fifth of its hits are not listed in these tables; note: % is set by controls: 0 for no effect and ±100 for the full control effect; luciferase read-out
StopGo reporter: lowers the luciferase signal of an FMDV 2A StopGo reporter. human cells with a luciferase reporter of 2A StopGo recoding; control for the full effect not named in the record. Potency, µM (highest dose often 57.9 µM), without a hit: top-dose signal change, negative = less light. 410,000 compounds, 1.2% hits. AID 1159524; active = well fitted falling curve with a large enough effect; inconclusive = small, poorly fitted or top-dose-only effect; inactive = no such curve, though single readings can be large or run the other way; tested in HEK293T cells; note: % is set by controls: 0 for no effect and ±100 for the full control effect; nearly all actives have a fitted effect of over 45% in size; luciferase light after 4 h
Numbers without * were called inactive; ? = inconclusive; nt = no result given; & = joins results of further samples; [ ] = dose if it differs, or a comment. Unless noted, calls come from the whole dose curve; as a rule, active means well fitted rising curve with a large enough effect; inconclusive means small, poorly fitted or top-dose-only effect; inactive means no such curve, though single readings can be large or run the other way. Potency is the fitted concentration of half-maximal effect.

SMILES | NS1 function inh | RE007 growth inh | Lassa entry inh | Cruzain inh Det | Cruzain inh noDet | SARS PLP yeast | MARV entry inh | StopGo reporter
O=C(N/N=C/c1c(O)ccc2ccccc12)c1ccc(Br)o1 | -18% | -17% | ? | nt | nt | 12% | ? | 55%[activator]
O=C(O)COc1ccccc1/C=N/NC(=O)CSc1nnc(SCc2ccccc2)s1 | 13% | -12% | nt | nt | nt | 2% | nt | -10%
NC(=O)c1c[nH]c2ccccc12 | 4% | 0% | nt | nt | nt | 0% | nt | 7%
C/C=C/C(=O)OCC(=O)Nc1ccc(OC)c(Cl)c1 | 4% | -3% | -8% | -2.3% | 20% | -9% | 2% | -4%
CC(NC(=O)COC(=O)c1ccc2c(c1)OCO2)c1ccccc1 (stereo not given) | nt | -2% | 12% | nt | nt | -1% | 3%[46.1 µM] | 8%
O=C(Nc1cccc(C(=O)NC2CCCC2)c1)c1ccccc1 | -2% | -9% | 5%[46.1 µM] | nt | nt | 2% | 1%[46.1 µM] | -6%
CCC/C(=N\NC(=O)c1csc(C)c1C)c1cccs1 | -4% | 2% | ? | 0.1% | -7% | 8% | ? | 46%[activator]
Cc1nn(C(=O)c2cccc([N+](=O)[O-])c2)c(C)c1Sc1ccccc1 | -13% | 14% | -19% | 2.7% | -8% | -14% | 0%[46.1 µM] | -1%
CCSc1nnc(CNc2ccc(C)cc2)n1C | -1% | 9% | -5% | -2.5% | -2% | -13% | 21% | 2%
Cc1cnc(C(=O)OCC(=O)c2ccc(F)cc2)cn1 | -4% | 5% | -19%[46.1 µM] | nt | nt | 13% | ? | 6%
Cc1cc(C)n2nc(SCC(=O)c3c(N)n(CC(C)C)c(=O)n(C)c3=O)nc2n1 | nt | -12% | 3%[46.1 µM] | nt | nt | -9% | ? | -25%
Cc1nc2ccc(NC(=O)N3CCOCC3)cc2nc1C | 4% | -4% | ? | nt | nt | 0% | 2%[46.1 µM] | -5%
COc1cccc(C(=O)N2CCN(C(=O)c3cccs3)CC2)c1OC | 8% | 20% | 8% | -0.9% | 0% | 5% | -1%[46.1 µM] | 10%
Cc1cc(C=O)c(C)n1-c1ccc(N2CCOCC2)cc1 | 19% | -2% | 0% | -0.1% | -9% | -17% | -4% | -10%
N#CC1=C(N)Oc2cc(N)ccc2C1c1cc(Br)cs1 (stereo not given) | 10% | 6% | ? | nt | nt | -3% | ? | -20%
CCN(CC)C(=O)CSc1nc2ccc(NC(=O)CSc3nnc(COc4ccccc4C)n3C)cc2s1 | -12% | -11% | ? | -5.2% | ? | 4% | -22% | 22µM*
CCN(CC)S(=O)(=O)c1ccc(Cl)c(C(=O)N2CCc3ccccc32)c1 | 3% | -2% | -28% | -0.5% | 1% | 2% | ? | -44%
CN(C)C(CNC(=O)CCCN1C(=O)c2cccc3cccc(c23)C1=O)c1ccccc1 (stereo not given) | -2% | -15% | -23%[46.1 µM] | nt | nt | 0% | ? | 6%
O=C1c2ccccc2C(=O)N1c1cccnc1 | 9% | -5% | 8% | 3.7% | -2% | nt | ? | 13%
COc1ccccc1CNC(=O)C1CCN(Cc2nc(-c3cccc(Cl)c3)oc2C)CC1 | -4% | -3% | -9% | -2.6% | 2% | 8% | -22% | -1%
CN(C(=O)COC(=O)CNC(=O)c1ccc2ccccc2c1)c1c(N)n(Cc2ccccc2)c(=O)[nH]c1=O | -2% | -11% | -5% | nt | nt | -6% | 17% | -16%
COC(=O)c1cc(S(=O)(=O)NCC2CCN(Cc3cccc(F)c3)CC2)c[nH]1 | 4% | 2% | 12%[46.1 µM] | 4.3% | -15% | 7% | nt | -13%&-6%
CCOC(=O)c1sc(NC(=O)Nc2ccc(Cl)cc2)nc1C | 6% | 14% | ? | -1.7% | -2% | -4% | ? | 13%
CCOc1ccccc1NC(=O)CCS(=O)(=O)c1ccc(OC)cc1 | nt | 11% | 9%[46.1 µM] | -0.7% | -23% | -1% | nt | -1%&-5%
OCc1cnc[nH]1 | -10%&0% | -24%[18.4 µM] | 4%&-10% | 0.9%&-3.9% | -3%&9% | -2% | -7%&13%&-16%&-7%&-7% | -8%
CCc1nc(N2CCN(Cc3ccc4c(c3)OCO4)CC2)c2oc3ccccc3c2n1 | -47% | -10%[3.69 µM] | ? | -1.9% | -1% | -7% | ? | ?
Cn1c(SCC(=O)Nc2ccc3[nH]c(=O)[nH]c3c2)nnc1-c1ccccc1 | 7% | -11% | -1% | nt | nt | -2% | ? | -7%
COc1ccccc1NS(=O)(=O)c1ccc(C)c(C(=O)Nc2cc(C)on2)c1 | nt | 5% | ? | nt | nt | -11% | -28% | 8%
COc1ccc(N(CCC#N)S(=O)(=O)c2ccc(Cl)cc2)cc1 | -1% | -2% | 23%[14.3 µM] | 1.8% | -2% | 7% | 7% | 7%
CCN(C(=O)COC(=O)CNC(=O)c1ccc(C)s1)c1ccccc1 | -3% | -2% | 10%[46.1 µM] | nt | nt | -2% | 0% | -11%
CCN(C(=O)c1cc2ccccc2oc1=O)c1cccc(C)c1 | 3% | 22% | ? | 0.6% | 0% | 8% | 27% | 39%[activator]
CCS(=O)(=O)c1c(S(=O)(=O)CC)c2cc(C(C)(C)C)ccn2c1C(=O)c1ccc(F)cc1 | nt | nt | 6%[46.1 µM] | -0.5% | -6% | nt | 8%[46.1 µM] | ?
COc1ccc(C2=NOC(C(=O)NC(C)C)C2)cc1 (stereo not given) | 1% | 0% | 54%[14.3 µM] | 1.4% | 9% | 5% | 23% | 44%[activator]
CCCc1cc(=O)oc2c(C)c(OCC(=O)N3C[C@H]4C[C@@H](C3)c3cccc(=O)n3C4)ccc12 | -7% | -7% | nt | nt | nt | 3% | nt | -18%
CCOC(=O)C(=O)CC(=O)c1ccc2c(c1)OCCO2 | -2% | 8% | nt | nt | nt | 0% | nt | 48%[activator]
CCC(NC(=O)Nc1nnc(C(F)(F)F)s1)(C(F)(F)F)C(F)(F)F | -238% | -13% | 7.1µM* | -13% | -16% | -39% | 2.5µM* | ?
COc1ccc(S(=O)(=O)N(CCc2ccccc2)CC(=O)NCc2ccccc2)cc1OC | nt | nt | -28%[46.1 µM] | -3.7% | ? | nt | nt | 25%
Cc1cccc(C)c1NC(=O)COC(=O)c1cc(=O)c2ccccc2o1 | -2% | -10% | nt | nt | nt | 0% | nt | -4%
O=C(COc1ccccc1)NC(=S)Nc1cccc([N+](=O)[O-])c1 | 6% | nt | 11% | 3.0% | 0% | -13% | 13% | 2%
CCC(C)NCCCCOc1cc(C)cc(C(C)C)c1 (stereo not given) | -10% | nt | ? | -0.6% | -15% | -21% | ? | -9%
Cn1c(=O)c2c(c3ccccc31)OC(=O)CC2c1cccc(F)c1 (stereo not given) | nt | nt | -17%[46.1 µM] | -3.4% | 3% | nt | -22%[46.1 µM] | -6%
CCOc1ccc(CCNC(=O)c2cc3c(s2)-c2ccccc2OC3)cc1OCC | nt | nt | nt | -17% | 8% | nt | ? | 0%
CCOC(=O)C1(Cc2ccccc2)CCCN(Cc2ccncc2)C1 (stereo not given) | 2% | 11% | nt | nt | nt | 0% | nt | ?
CCOc1ccc(C2C(C(=O)Nc3ccccc3)=C(C)Nc3nc(-c4ccccc4)nn32)cc1OC (stereo not given) | nt | nt | -19%[46.1 µM] | -1.7% | -7% | nt | -5%[46.1 µM] | 11%
Cn1c(/N=C/c2cc(Cl)ccc2O)nc2ccccc21 | -3% | 6% | -14% | -9.4% | -16% | -4% | ? | 44%[activator]
CC(=O)Oc1ccc(C)cc1N1C(=O)c2ccc(C(=O)O)cc2C1=O | -2% | 0% | -10% | 3.5% | -7% | 2% | 4% | ?
CCNC(=O)COC(=O)/C=C/c1cccc([N+](=O)[O-])c1 | nt | 6% | -11% | nt | nt | 1% | -14%[46.1 µM] | -8%
COc1ccc(N2CCN(S(=O)(=O)c3ccc(OC)c(-c4noc(C)n4)c3)CC2)cc1 | nt | nt | 16%[46.1 µM] | -1.6% | 3% | nt | 2%[46.1 µM] | 8%
O=C1CC(C(=O)Nc2ccc(F)cc2)S/C(=N\N=C\c2ccco2)N1 (stereo not given) | -6% | -1% | 28% | -1.1% | ? | -2% | ? | -23%
Cc1ccccc1NC(=O)/C=C/c1ccc([N+](=O)[O-])s1 | 0% | -15% | ? | -2.9% | -7% | -20% | ? | 10µM*
O=C(NCc1ccccc1Cl)C1CCCN(c2nc3ccccc3n3cccc23)C1 (stereo not given) | nt | nt | 4%[46.1 µM] | -4.9% | ? | nt | nt | -14%
O=C(COc1cccnc1[N+](=O)[O-])N1CCN(C(=O)c2ccco2)CC1 | 1% | 0% | ? | nt | nt | -5% | -1% | 2%
C=C(C)COc1ccc(-c2n[nH]c(C)c2-c2ccc(OC)cc2)c(O)c1 | -115% | ? | ? | -11% | -8% | -32% | ? | 25µM*
O=C(CCNS(=O)(=O)c1cccc2nsnc12)NCc1cccs1 | 2% | -1% | -3% | -0.8% | -6% | 1% | 8% | 11%
Cc1cc(C)nc(SCc2ccc(C(=O)NN=C3C4CC5CC(C4)CC3C5)cc2)n1 | 28% | 4% | -4% | -0.4% | -10% | 2% | ? | -9%
CCOC(=O)c1[nH]cnc1C(=O)NCc1ccccc1 | 4% | 5% | nt | nt | nt | 0% | 7% | -7%
Cc1cc(N(CCCl)CCCl)ccc1C=NNC(=O)Cc1cc(=O)oc2cc(O)ccc12 | nt | 2% | ? | nt | nt | nt | ? | ?
COC(=O)CC1(C(=O)OC)Oc2ccc(Br)cc2C(=O)N1c1ccc(Br)cc1Cl (stereo not given) | 10% | 25% | ? | nt | nt | -4% | ? | 0%
CCOC(=O)CN1CC23C=CC(O2)C(C(=O)NC2CCCC2)C3C1=O (stereo not given) | 9% | 7% | nt | -0.9% | 0% | -5% | nt | 0%
CCOc1cc(-c2noc(N)c2C(=O)OC)cc(OCC)c1OCC | -4% | -11% | ? | -3.9% | 0% | -4% | 0% | ?

Not a hit list, and some 4.7% of all compounds hit somewhere here.
